Screening data deposited in PubChem by several laboratories.
ALR inh – inhibitors of human ALR sulfhydryl oxidase, primary screen, biochemical, H2O2 detection, HRP-luminol luminescence, single point. FAD-linked sulfhydryl oxidase ALR (Homo sapiens), P55789. purified ALR, DTT oxidation. inhibition, % (concentration not given with the values). hit rate 3.8% among 290,000. AID 485317, 2010;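 active = mean and each replicate at 75% or more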;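 note: stock transfer was 7.5 nL into about 7.5 µL; 0% = neutral wells and 100% = wells with inactivated enzyme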
Target sequence (P55789 whole entry, looked up): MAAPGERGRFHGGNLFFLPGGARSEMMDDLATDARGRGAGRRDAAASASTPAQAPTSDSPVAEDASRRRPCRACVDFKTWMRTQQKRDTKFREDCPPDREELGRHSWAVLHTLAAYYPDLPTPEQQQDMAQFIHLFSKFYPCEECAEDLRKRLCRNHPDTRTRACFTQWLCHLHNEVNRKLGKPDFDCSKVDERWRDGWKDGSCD
Ecoli growth – E. coli growth inhibition, primary screen, OD600; Escherichia coli growth, 23 h; active compounds read low; OD600 absorbance (concentration not given with the values); hit rate 0.21% among 330,000; AID 1053175, 2014;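 active = OD600 absorbance below the run mean of sample wells minus 3.6 SD, in any replicate, cut at about 0.56 in these data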;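 note: stock transfer was 300 nL into about 60 µL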
B2AR ag – beta2AR agonists driving receptor internalization, primary screen, cell-based, FAP fluorogen, flow cytometry. Beta-2 adrenergic receptor (Homo sapiens), P07550. Am2.2-beta2AR cells; reference of the scale not given here. response, % (concentration not given with the values). hit rate 0.43% among 340,000;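 active = response above a set limit, near 3 SD of response in nonfluorescent compounds, cut at about 42% in these data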;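 note: stock transfer was 100 nL into about 11 µL; a reference agonist was the positive control; negative values mostly stem from fluorescent compounds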
UCH37 inh – inhibitors of human UCH37 deubiquitinase, primary screen, biochemical, Ub-AMC cleavage, fluorescence | Ubiquitin carboxyl-terminal hydrolase isozyme L5 (Homo sapiens), Q9Y5K5 | purified proteasome/UCH37 | inhibition, % (concentration not given with the values) | hit rate 0.33% among 330,000 | AID 588478, 2011;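 active = mean of two replicates above 20%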;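 note: 0% = compound-free wells with enzyme and 100% = wells lacking proteasome; stock transfer was 100 nL into about 20 µL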
Target sequence (Q9Y5K5 whole entry, looked up): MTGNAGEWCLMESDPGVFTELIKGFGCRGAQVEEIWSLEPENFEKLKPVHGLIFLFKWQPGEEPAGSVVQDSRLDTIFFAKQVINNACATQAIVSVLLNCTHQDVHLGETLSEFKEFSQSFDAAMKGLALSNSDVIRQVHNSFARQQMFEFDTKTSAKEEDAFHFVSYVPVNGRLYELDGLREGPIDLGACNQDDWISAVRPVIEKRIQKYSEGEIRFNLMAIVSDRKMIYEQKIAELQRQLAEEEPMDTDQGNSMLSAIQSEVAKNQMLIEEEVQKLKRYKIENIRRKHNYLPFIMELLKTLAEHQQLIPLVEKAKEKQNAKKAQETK
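Material: human UCH37 enzyme supplied as purified proteasome complex. Measure: % inhibition of Ub-AMC cleavage fluorescence. Medium: pH 7.4 Tris-HCl (50 mM) with ovalbumin, ATP-MgCl2, DTT. Times: 30 min preincubation with enzyme, 25 min cleavage at room temperature. Detection: AMC fluorescence intensity at 355/460 nm.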
HNF4A DNA FP – change in binding of human HNF4A to DNA, primary screen, biochemical, fluorescence polarization, FITC-DNA; Hepatocyte nuclear factor 4-alpha (Homo sapiens), P41235; 1 h; activity change, % at 10 µM; hit rate 0.3% among 360,000; in the data active = activity change above about 30%, passing the limit was not always enough;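 note: controls were the assay level and a saturating level of protein; the project sought stronger binding though the title names inhibitors; some compounds called inactive have numbers as strong as hits; positive values seem to mean higher polarization but the record does not say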
rRNA inh HTS – reduced GFP signal of wild-type E. coli, primary screen, bacterial rRNA inhibitor project, GFP/RFP fluorescence, OD600, single point; GFP signal change (wild-type ribosome), % (test concentration not listed); E. coli WT GFP vs humanized-ribosome RFP mutants, 24 h; active compounds read low; DMSO median 0, no signal -100; hit rate 1.6% among 350,000; AID 720706, 2013;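 active = significant combined selectivity score with lowered wild-type GFP, culture density cut under 30%, mutant RFP and density less affected; inactive = any of these conditions unmet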; note: one replicate is shown; some compounds called inactive have numbers as strong as hits
FGF22 binding – binders of human FGF22 protein, primary screen, FGF22 synaptogenesis inhibitor project, biophysical, thermal shift, single point | calls only at 9.99 µM | AID 651658, 2012 | hit rate 1.5% among 340,000 | recombinant FGF22 thermal shift, SYPRO orange fluorescence; percent of sucrose octasulfate shift, DMSO zero;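 active = melting point raised past a set limit in the mean and every replicate; three in four hits are not shown here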
Target sequence (Q9HCT0 whole entry, looked up): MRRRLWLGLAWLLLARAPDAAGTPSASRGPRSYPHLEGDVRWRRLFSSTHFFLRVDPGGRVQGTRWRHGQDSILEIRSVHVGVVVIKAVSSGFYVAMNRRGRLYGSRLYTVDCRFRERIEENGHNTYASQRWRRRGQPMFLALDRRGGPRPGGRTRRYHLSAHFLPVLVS
rRNA inh HTS OD600 – recorded beside rRNA inh HTS, whose call it bears; OD600 change, %; measured here: OD600 growth;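 optical density of the mix in the first replicate; 0 = DMSO median and -100 = no signal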
rRNA inh HTS RFP – recorded beside rRNA inh HTS, whose call it bears; RFP signal change, %; measured here: RFP humanized mutant strains;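 first replicate; 0 = DMSO median and -100 = no signal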
Numbers without * were called inactive; i = inactive; · = not tested or not shown. Not all compounds are listed, so the mix of outcomes need not match the whole.

Compound,ALR inh,Ecoli growth,B2AR ag,UCH37 inh,HNF4A DNA FP,rRNA inh HTS,rRNA inh HTS OD600,rRNA inh HTS RFP,FGF22 binding
CS(=O)(=O)N(CC(=O)N1CCCC1)c1ccc(Cl)c(Cl)c1,·,0.66,-4,3.7,-1.0,8,1,-2.6,i
O=C(O)c1cccc(CN2C(=O)SC(Nc3cccc4ccccc34)C2=O)c1 (configuration not stated),·,0.68,2,-2.0,-4.7,-14,-15,5.4,i
O=C(CN1CCN(S(=O)(=O)c2ccc(Cl)c(C(F)(F)F)c2)CC1)NC(=O)NC1CCCCC1,·,0.66,-10,4.0,-2.0,-6,-40,2.1,i
Cc1ccc(C)c(-n2c(SCC(N)=O)nnc2-c2ccccn2)c1,-5,0.71,-4,1.5,1.2,·,·,·,·
C/C(=N\O)c1ccc2c(c1)OCCO2,-5,·,6,·,-6.0,4,0,-5.9,i
O=C(NCc1ccco1)C1CCC(N2C(=O)c3ccccc3C2=O)CC1 (configuration not stated),-2,0.72,-6,3.0,3.2,10,-1,-1.2,i
COc1ccc(C2=NN(C(=O)CSc3ncccn3)C(c3ccc(C)cc3)C2)cc1 (configuration not stated),-2,0.74,-5,-0.1,1.7,·,·,·,·
O=S(=O)(c1ccc(Cl)cc1)N1CCN=C1SCc1cccnc1,97*,0.74,-14,3.8,1.3,-3,1,-0.6,i
O=C(Cn1ncc2ccccc2c1=O)Nc1cccc(C(F)(F)F)c1,·,·,·,·,2.5,0,8,-2.1,i
O=c1[nH]c2ccccc2c2ccccc12,-14,0.66,-6,2.0,-0.1,·,·,·,·
OCCN1CCN(c2ncnc3c2ncn3[C@H]2CN(Cc3ccc(Cl)cc3)C[C@@H](CO)O2)CC1,·,·,·,·,-7.0,5,7,-0.9,i
CCc1nc2ccc(C(=O)NCCc3ccco3)cc2nc1CC,33,0.7,-71,-0.7,2.5,·,·,·,·
Cc1ccc(CSc2nnc(CC(=O)Nc3ccc(C)cc3)n2C)cc1,-2,0.69,5,1.5,0.9,·,·,·,·
O=c1c2ccccc2nc(SCc2ccc(F)cc2Cl)n1CCCN1CCOCC1,6,0.67,2,2.9,4.6,-46,-66,-9.2,i
COc1ccc(C2=NN(C(=O)c3ccccc3C(=O)O)C(c3ccccc3O)C2)cc1 (configuration not stated),·,0.69,-1,4.8,14,-9,-20,-2.4,i
CCCCCC(=O)NC(CC(=O)OC)c1ccc2c(c1)OCO2 (configuration not stated),·,0.7,-4,3.2,1.2,9,7,1.2,·
Cc1cc(C)c2c(CN3CCN(Cc4ccc5c(c4)OCO5)CC3)cc(=O)oc2c1C,-2,0.73,2,2.5,1.5,·,·,·,·
CCNc1nc(NCC)n2c(SCC(=O)Nc3cc(OC)ccc3OC)nnc2n1,·,0.7,-4,1.1,0.4,6,8,2.0,i
COc1cc(/C=N/NC(=O)c2cccs2)ccc1O,99*,·,-1,·,0.3,-2,4,1.2,i
CN(CC(=O)Nc1ccc(F)cc1)C(=O)COC(=O)CSc1ccc(F)cc1,7,0.7,-3,-0.2,-0.1,-1,1,-0.9,i
Cc1cc(C)nc(N2CCN(c3nnnn3-c3ccccc3)CC2)n1,-8,0.74,9,-1.3,2.0,·,·,·,·
Cc1nc2ccccn2c1/C(O)=C1\C(=O)C(=O)N(CCN2CCOCC2)C1c1cccnc1 (configuration not stated),-5,·,-4,7.8,-0.2,·,·,·,·
Cc1nn(CC(=O)O)c(C)c1[N+](=O)[O-],-3,0.68,-4,-0.5,1.9,11,6,2.9,i
COc1ccc(C(=O)c2nccc3cc(OC)c(OC)cc23)cc1OC,-25,0.71,2,48*,-2.5,·,·,·,·
CC(=O)c1ccc2noc(-c3ccc(Cl)cc3)c2c1,3,0.64,-19,-4.7,2.2,7,7,14,i
CC(NC(=O)c1ccc(Cl)cc1)C(=O)N1CCCCC1 (configuration not stated),·,·,-10,·,-1.2,5,0,-4.8,i
CCOC(=O)C1=C(C)N(C)C(=O)NC1c1ccc(C)s1 (configuration not stated),-2,0.69,-7,-0.4,-3.0,·,·,·,·
Cc1ccc(/C=C/C(=O)OCC(=O)Nc2cccnc2Cl)cc1,-2,0.69,1,0.2,-3.3,7,19,-1.8,i
O=c1[nH]c(-c2ccccc2)nc(-c2ccccc2)c1Cl,-2,0.69,1,4.7,3.8,3,7,-0.9,i
COc1ccc(-c2noc(CCC(=O)Nc3ccc(C)c(C)c3)n2)cc1,-1,0.69,3,4.0,-1.0,·,·,·,·
CC(C)CNC(=O)/C=C/C=C/CCCC/C=C/c1ccc2c(c1)OCO2,1,0.79,5,3.1,-1.8,7,7,-4.8,i
Cc1cc([N+](=O)[O-])nn1CCCC(=O)Nc1cc(Oc2ccc(F)cc2)cc([N+](=O)[O-])c1,14,0.66,-4,4.7,-0.1,·,·,·,·
COc1ccc(Cc2[nH]n3c(=O)c(Cl)c(C)nc3c2-c2ccccc2)cc1,1,0.67,-1,-3.1,2.3,-33,-27,-7.2,i
Cc1noc(NS(=O)(=O)c2ccc(N/C=C\C(=O)c3ccncc3)cc2)c1C,9,0.69,0,19,-0.9,·,·,·,·
OC(c1ccc(F)c(F)c1)c1nc(-c2ccccc2)cs1 (configuration not stated),·,·,·,·,-7.8,-70,-79,-27,i
Cc1ccc(C(=O)NC(=S)Nc2ccc(N3CCOCC3)cc2)c(C)c1,51,0.69,-6,4.3,-1.0,10,9,-0.2,i
Cc1nc(C(F)(F)F)ccc1C(=O)N1CCC1(C)C(=O)NS(=O)(=O)c1ccc(Cl)cc1 (configuration not stated),·,·,·,·,4.8,22,14,2.3,i
Cc1ccc(CNC(=O)CSc2nc3ccsc3c(=O)n2NC(=O)c2ccccc2)cc1,-4,0.67,-5,2.8,-3.8,·,·,·,·
CCN1CCN(CC(=O)N2c3ccccc3Sc3ccccc32)CC1,-1,0.62,1,6.4,2.0,18,12,6.2,i
Nc1nnc(SCC(=O)N2CCN(c3cccc(Cl)c3)CC2)n1-c1ccccc1,6,0.7,-1,-1.1,1.1,·,·,·,·
CCN(C(=O)c1cc2cc3ccc(C)cc3nc2o1)c1ccc(OC)cc1,-27,0.7,-2,-3.6,1.8,·,·,·,·
NC(Cc1ccc(C(F)(F)F)cc1)c1csc(Nc2ccc(C(=O)NCc3ccco3)cn2)n1 (configuration not stated),·,·,·,·,6.0,-60,-83,-15,i
O=C(Cc1nnc(NC(=O)c2ccccc2)s1)N/N=C\c1ccc(O)c(O)c1,63,·,-10,·,-2.6,2,-4,-4.5,i
COc1ccc(NC(=O)C2CCOC(C)(C)C2)cc1 (configuration not stated),-10,0.67,8,-0.3,4.2,3,6,-2.1,i
CCOC(=O)C1CCCN(Cc2ccc(-c3ccccc3)cc2)C1 (configuration not stated),·,0.69,6,4.7,-0.3,-25*,-20*,-3.1*,i
CC(C)c1c(C(=O)N/N=C/c2cccc3ccccc23)nnn1-c1nonc1N,17,·,7,·,0.7,-6,-26,0.2,i
CCCCNc1c(-c2ccc(OC)c(Sc3ccc(OC)cc3)c2)nc2cnccn12,-2,0.74,15,-69,8.1,-1,9,0.5,i
COCCN1Cc2cccc(C(=O)Nc3c(C)cccc3C)c2C1=O,-1,0.66,-14,0.9,3.1,·,·,·,·
CCOC(=O)C(=CNc1ccc(NC2=NCC(C)(C)S2)cc1)C(=O)OCC,·,0.64,17,-6.1,1.4,-1,-6,4.3,i
Clc1ccc2[nH]c3c(c2c1)CCc1cn[nH]c1-3,99*,0.56*,22,1.4,2.3,·,·,·,·
CC1(C)Cc2c(c(N3CCOCC3)nc3snc(Br)c23)CO1,-6,0.72,-5,6.5,-2.2,·,·,·,·
O=Cc1ccc(-c2cccc([N+](=O)[O-])c2)o1,1,0.66,6,7.2,-0.7,4,2,1.4,i
O=C(COC(=O)c1ccc(Br)cc1)Nc1cccnc1Cl,0,0.69,-4,3.1,0.7,2,0,-1.3,i
CCc1ccc(OCC(=O)NC(C)C)cc1,·,0.73,2,1.0,-1.1,11,8,-0.3,i
CCOC(=O)c1cn(CC(=O)Nc2ccc3c(c2)OCCO3)nn1,-12,0.68,2,5.5,-2.1,·,·,·,·
Cn1c(CCN2CCCC2)nc2cc(NS(=O)(=O)c3ccc(Cl)cc3)ccc21,-1,0.67,-1,1.6,5.2,-1,-2,9.9,i
CC1(C)Cc2noc(N)c2C(C)(C)N1OC(=O)c1scc2c1OCCO2,2,0.73,-1,-0.2,0.0,·,·,·,·
O=[N+]([O-])c1ccc(CCn2ccnc2)cc1,·,0.64,2,3.4,-0.8,24,10,-1.9,i
Cc1oc2cc3oc(=O)c(CCC(=O)NCCCN4CCCC4=O)c(C)c3cc2c1C,·,0.78,-16,-80,-1.6,·,·,·,i
Cc1cc(C)c(C)c(S(=O)(=O)NCc2ccc(C(=O)N3CCCC3)cc2)c1C,-7,0.68,-2,5.5,5.2,-1,-3,2.6,i
Cn1c(COc2ccc(Cl)cc2Cl)nnc1SCC(=O)NCC1CCCO1 (configuration not stated),7,0.65,-10,4.1,4.0,-1,-3,-0.6,i
COc1ccc(CN2CC(=O)N(c3ccc(C)cc3)C2=S)cc1OC,-41,0.7,0,-0.7,1.9,·,·,·,·
